RGS16-Gao – modulates binding between human RGS16 and Galphao | binding response (% of control), % at 10 µM | bead-based flow cytometry RGS16-Galphao binding, fluorescence; actives lie on both sides | AID 1441 | actives 0.38% (n = 220,000) | O15492+P09471;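 active = below 25% or above 175%, edge rows of some plates excepted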;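 also: Galphao activated by GDP with aluminum fluoride before binding; 100% = wells without compound and 0% = beads without RGS; some results beyond the cut were filed as inactive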
Target sequence (O15492 whole entry, looked up): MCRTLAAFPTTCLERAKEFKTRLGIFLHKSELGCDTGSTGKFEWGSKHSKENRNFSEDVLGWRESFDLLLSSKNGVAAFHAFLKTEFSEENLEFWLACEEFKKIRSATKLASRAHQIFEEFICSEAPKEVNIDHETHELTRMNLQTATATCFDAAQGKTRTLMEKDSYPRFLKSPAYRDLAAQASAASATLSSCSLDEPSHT
Target sequence (P09471 whole entry, looked up): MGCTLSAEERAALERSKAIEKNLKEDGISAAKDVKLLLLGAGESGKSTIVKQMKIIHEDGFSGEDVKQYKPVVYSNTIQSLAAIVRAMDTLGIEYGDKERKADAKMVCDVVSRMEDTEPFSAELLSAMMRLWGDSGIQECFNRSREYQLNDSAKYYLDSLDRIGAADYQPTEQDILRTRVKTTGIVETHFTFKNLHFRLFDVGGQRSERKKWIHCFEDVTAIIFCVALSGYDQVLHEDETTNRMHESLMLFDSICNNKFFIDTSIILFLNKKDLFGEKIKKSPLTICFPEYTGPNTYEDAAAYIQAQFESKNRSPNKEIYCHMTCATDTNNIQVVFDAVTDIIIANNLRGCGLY
Insulin prom inh – TRM-6 insulin promoter activity inhibition. TRM-6 cells (human fetal islet line), insulin promoter-eGFP reporter, imaging; reporter expression induced with tamoxifen. inhibition, % at 2 µM. actives 0.9% (n = 130,000). AID 1273;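 active = inhibition above the mean plus 3 SD, with well images judged a real hit on visual review, cut at about 60% in these data, passing the limit was not always enough; inconclusive = inhibition over the cutoff but images rejected on review; inactive = inhibition not above the cutoff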
HSV augment – HSV replication enhancement | HSV replication augmentation in cells, fold increase | maximum fold increase | actives 0.005% (n = 220,000);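 active = peak rise of 1.5-fold or more in the series; inconclusive = self-fluorescent or not available for retest; tested in PC3 cells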;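 also: first round at 10 µM; read as green reporter fluorescence; hits show the peak of a series up to 25 µM; 1 = signal of infected wells without compound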
GALR2 agonist – agonists of human galanin receptor 2 (GALR2); O43603; GALR2-expressing cells, agonist activation read-out; actives 0.48% (n = 140,000); activation, %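 (tested at 5 µM)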; AID 803;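 active = above mean plus 3 SD of all compounds, about 5% in these data, not always enough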;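 also: 0% = vehicle buffer wells and 100% = reference agonist at full effect; tested in CHO reporter cells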
Target sequence (O43603 whole entry, looked up): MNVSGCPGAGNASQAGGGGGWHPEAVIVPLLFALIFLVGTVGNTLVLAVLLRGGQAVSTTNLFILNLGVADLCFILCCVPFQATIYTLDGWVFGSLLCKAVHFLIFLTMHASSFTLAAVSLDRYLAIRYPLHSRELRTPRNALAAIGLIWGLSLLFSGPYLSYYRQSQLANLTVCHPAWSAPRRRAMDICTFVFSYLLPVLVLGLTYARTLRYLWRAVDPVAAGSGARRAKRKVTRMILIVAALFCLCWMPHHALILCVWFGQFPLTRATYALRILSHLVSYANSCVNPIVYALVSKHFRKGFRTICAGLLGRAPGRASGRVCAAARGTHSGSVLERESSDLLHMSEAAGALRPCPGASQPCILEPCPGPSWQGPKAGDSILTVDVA
PKD1 kinase inh – inhibitors of human PKD1 kinase; inhibition, %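 (about 10 µM by stock and volumes)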; AID 797; PKD1 kinase fluorescence polarization assay; Q15139; actives 0.056% (n = 200,000);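 active = inhibition of 50% or more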;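 also: controls were vehicle for no effect and a reference inhibitor for full effect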
Insulin prom inh cell count – also measured in Insulin prom inh; calls as there; normalized cell count, %; measured here: cell count, toxicity; reference of the scale not given here;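 cells exposed to compound for 48 h; stained nuclei by imaging scaled within each plate; lower means fewer cells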
HSV augment primary fold – also measured in HSV augment; calls as there; fold increase; compound at 10 µM; measured here: primary screen fold increase 10 uM; tested in PC3 cells;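 GFP signal in the first replicate; 1 = infected wells without compound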
An asterisk follows results filed as active; i = inactive; ? = inconclusive; nt = not tested or not shown. Compounds as they come; any-hit rate near 1.3%.

SMILES	RGS16-Gao	Insulin prom inh	Insulin prom inh cell count	HSV augment	HSV augment primary fold	GALR2 agonist	PKD1 kinase inh
COc1ccccc1N1CCN(CC(=O)NC(=O)NCc2ccco2)CC1	100.3	-23.5	115.2	i	0.9	0.4	9.6
COC(=O)NC1(C(F)(F)F)NC(=O)N(C2CCCCC2)C1=O (centres undefined)	100.8	11.8	117.1	i	0.93	-2.4	2.0
CC(NC(=O)Cc1cccc(C(F)(F)F)c1)c1ccc(F)cc1 (centres undefined)	98.3	nt	nt	i	0.98	nt	7.7
COCCCNC(=O)c1c(NC(=O)c2cccs2)sc2c1CCCC2	105.7	-20.5	187.6	i	0.89	1.3	-6.9
Oc1c(C(c2ccccc2)N2CCc3ccccc3C2)sc2ncnn12 (centres undefined)	103.4	nt	nt	i	0.85	-1.0	13.3
Nc1n[nH]c(=S)n1/N=C1/C(=O)Nc2ccccc21	89.6	22.2	86.9	i	1.02	nt	6.1
Cn1c(=O)c(/C=C/c2ccccc2)nc2ccccc21	102.7	0.0	103.0	i	1.21	3.8	-9.4
COC(c1ccccc1)c1nnc(CCC(=O)NCCC(C)C)o1 (centres undefined)	97.0	61.9	106.9	i	0.93	nt	-4.2
O=C(Nc1nnc(-c2ccncc2)s1)Nc1ccccc1F	112.3	nt	nt	i	1	nt	-3.3
CCCCn1cc([N+](=O)[O-])nc1C	99.3	nt	nt	i	1.29	nt	nt
O=C(CCCn1cnc([N+](=O)[O-])n1)Nc1cccc2ccccc12	127.8	41.7	60.5	i	0.92	nt	-8.7
COc1ccc(S(=O)(=O)NCCc2csc(-c3cccnc3)n2)cc1	101.4	nt	nt	i	0.97	-3.3	1.1
Cn1nc2c(c1C(=O)O)CCCC2	112.4	47.4	98.7	i	0.98	-1.2	-6.2
Cc1ccc2nc(-c3ccc(NC(=S)NC(=O)C(C)C)cc3)sc2c1	100.5	13.8	118.2	i	0.86	-2.2	-2.1
CCC(Sc1ncccc1C(=O)O)C(=O)N1CCCC1 (centres undefined)	103.2	9.1	36.0	i	1.22	-0.7	3.2
Cc1ccc(NCC(=O)c2ccccc2)cc1Cl	99.0	-46.9	100.5	i	1.12	-2.6	-9.6
CCn1ccc(C(=O)NC2=NCCS2)n1	104.6	30.8	118.7	i	0.9	-0.6	-17.0
CCn1c(C)[n+](CC)c2ccc(S(=O)(=O)NC)cc21	111.6	0.0	107.2	i	0.91	nt	-4.3
N#CC1=C(N)OC2=C(C(=O)CC(c3ccccc3)C2)C1c1cccnc1 (centres undefined)	94.2	-21.4	139.8	i	0.85	0.1	-6.9
Cn1c(=O)c([N+](=O)[O-])c(N2CCN(Cc3ccc4c(c3)OCO4)CC2)c2ccccc21	95.3	nt	nt	i	0.83	nt	nt
N#CCCN/N=C(\Cc1nc2ccccc2[nH]1)c1ccccc1	168.9	31.2	125.7	i	1.01	-3.6	2.2
Cc1cccc(NC(=O)C2C3C=CC(C4CC34)C2C(=O)O)c1 (centres undefined)	96.3	36.0	87.3	i	0.92	2.6	1.8
Cc1[nH]c2c(ccc3cccnc32)c1C	101.8	nt	nt	i	0.9	nt	nt
CCN(CCCNC(=O)C1CCN(S(=O)(=O)CC)CC1)c1cccc(C)c1	65.1	0.0	72.8	i	1	-0.3	-7.6
CCc1ccc(NC(=O)N(CCCOC(C)C)C2CCN(C(C)=O)CC2)cc1	103.8	nt	nt	i	1.09	-4.2	5.0

Overlap with the part before: 2 entries, followed by the next part.
SMILES	RGS16-Gao	Insulin prom inh	Insulin prom inh cell count	HSV augment	HSV augment primary fold	GALR2 agonist	PKD1 kinase inh
CCN(CCCNC(=O)C1CCN(S(=O)(=O)CC)CC1)c1cccc(C)c1	65.1	0.0	72.8	i	1	-0.3	-7.6
CCc1ccc(NC(=O)N(CCCOC(C)C)C2CCN(C(C)=O)CC2)cc1	103.8	nt	nt	i	1.09	-4.2	5.0
O=[N+]([O-])c1cccc(/C=N/N2CCN(Cc3ccccc3)CC2)c1	94.2	-40.7	107.0	i	1	nt	5.0
O=C(CSc1nccn1-c1ccccc1)c1ccc(Cl)cc1	101.9	24.0	88.1	nt	nt	-3.0	-3.6
Cc1ccc(/C=N/n2c(-c3cccnc3)n[nH]c2=S)s1	88.4	9.7	106.2	i	1.03	0.2	-1.3
O=C(CSc1ccc(-c2ccccn2)nn1)NCc1ccccc1	102.1	8.3	127.6	i	1	nt	0.2
Cc1nn(-c2ccccc2)c(Cl)c1C(=O)NCc1cccs1	83.5	nt	nt	i	1.01	-0.2	7.2
OC1CCCN(Cc2cn(Cc3ccccc3)nc2-c2cc3ccccc3o2)C1 (centres undefined)	104.5	13.0	79.6	i	0.88	nt	2.1
Cc1cccc2cc(CN(Cc3ccc4c(c3)OCO4)Cc3nnnn3C3CCCC3)c(=O)[nH]c12	116.7	-29.4	77.0	i	0.95	5.7*	-0.5
CCC(C)NC(=O)Nc1ccc(F)c(Cl)c1 (centres undefined)	115.2	nt	nt	i	1.06	nt	-0.8
CC(O)C(C(=O)OCc1ccc([N+](=O)[O-])cc1)N1C(=O)c2ccccc2C1=O (centres undefined)	103.7	61.5*	88.6*	i	1.02	-0.2	5.3
Cc1ccc2[nH]c3c(N4CCOCC4)ncnc3c2c1	110.1	60.7	128.8	i	1.07	-1.9	-7.8
CC(=O)c1cc(F)c(N2CCOCC2)cc1C	71.7	-19.4	189.4	i	0.84	-2.5	1.0
Cc1ccc(C)c(SCC(=O)Nc2cc(C)nn2-c2ccc(F)cc2)c1	183.5	nt	nt	i	1.12	-1.7	2.8
COc1cc(/C=C2/SC(=S)N(c3ccccc3)C2=O)ccc1Oc1nc(N2CCOCC2)nc(N2CCOCC2)n1	90.3	-82.1	117.6	?	nt	-1.2	-2.6
CCCCOc1ccc(C(O)(CCC)CCN2CCOCC2)cc1 (centres undefined)	100.9	-35.7	111.5	i	0.91	-1.8	7.2
Fc1ccc(-n2nnc(-c3cnc4ccccc4c3)n2)cc1	102.0	nt	nt	i	0.88	nt	-2.7
C=C(C)Cn1c(SCCCO)nc2c1c(=O)[nH]c(=O)n2C	69.4	nt	nt	i	1.07	-0.2	7.2
CCN(C(=O)COC(=O)/C=C/c1nc2ccccc2s1)C1CCS(=O)(=O)C1 (centres undefined)	110.7	36.4	126.9	i	0.86	nt	-3.0
CC(C)C(=O)NN(C(=O)c1ccccc1)c1ccccc1	101.4	33.3	55.6	i	0.9	nt	-7.3
OCC1CCCN(Cc2cn(Cc3ccccc3)nc2-c2cc3ccccc3o2)C1 (centres undefined)	107.5	nt	nt	i	0.98	nt	-3.8
COc1ccc2c(c1)[nH]c1c(=O)n(Cc3ccncc3)cnc12	107.3	nt	nt	i	1	nt	nt
Cc1nnc(N/N=C/c2ccc(-c3ccccc3F)o2)n1N	112.4	-26.7	35.5	i	0.95	nt	6.4
O=C(NN=C(Cc1ccccc1)Cc1ccccc1)C1CC1	97.5	0.0	108.4	i	0.91	nt	-1.6
CCOC(=O)c1ccc(NC(=O)CCC2COc3ccccc3O2)cc1 (centres undefined)	103.5	-42.9	240.3	i	0.85	-1.4	-4.6
CCc1ccc(/C(C)=N/NC(=O)c2ccccn2)cc1	112.8	-44.4	18.2	i	1.11	nt	-3.7
CCOc1ccc(C(=O)Nc2ccc(N3CCN(C)CC3)cc2)cc1Br	99.8	4.8	75.2	i	0.81	-0.2	1.9

An excerpt from above in order of their number in GALR2 agonist, ascending:
structure,RGS16-Gao,HSV augment,HSV augment primary fold,GALR2 agonist,PKD1 kinase inh
COc1ccc(S(=O)(=O)NCCc2csc(-c3cccnc3)n2)cc1,101.4,i,0.97,-3.3,1.1
Cc1ccc(NCC(=O)c2ccccc2)cc1Cl,99.0,i,1.12,-2.6,-9.6
Oc1c(C(c2ccccc2)N2CCc3ccccc3C2)sc2ncnn12 (centres undefined),103.4,i,0.85,-1.0,13.3

Other records
SMILES	RGS16-Gao	Insulin prom inh	Insulin prom inh cell count	HSV augment	HSV augment primary fold	GALR2 agonist	PKD1 kinase inh
c1ccc(-c2nc3ccccn3c2NC2CCCC2)nc1	98.4	-23.1	122.8	i	0.79	nt	-3.5
O=C(CN1CCN(c2ccc(O)cc2)CC1)Nc1ccc2c(c1)OCCO2	96.0	10.0	184.6	i	0.89	nt	-1.0
CC1=NN(c2ccccc2)C(=O)C1c1ccccc1 (centres undefined)	106.4	0.0	87.2	i	0.98	-1.1	-3.7
Cn1c(CCCOc2ccc(Cl)cc2Cl)nnc1SCC(=O)Nc1cccc(F)c1	100.7	nt	nt	i	0.88	-1.0	3.1
N#CC1=C(N)Oc2n[nH]c(-c3cccs3)c2C1c1cccs1 (centres undefined)	101.3	32.1	30.8	i	1.03	-0.2	-2.5
CCCCCCc1ccc(OCC(=O)OC)cc1OCC(=O)OC	94.9	3.2	102.6	i	0.77	-1.7	2.2
CN1/C(=C\C(=O)COC(=O)c2ccc([N+](=O)[O-])o2)C(C)(C)c2ccccc21	104.0	nt	nt	i	0.99	nt	2.7
CC(=O)NN1C(=O)/C(=C\c2ccccc2)SC1=S	101.1	nt	nt	nt	nt	-3.5	8.5
Cc1ccccc1C1N(c2nccs2)C(=O)C2CCCN21 (centres undefined)	97.7	46.7	113.0	i	1.01	nt	-4.9
CSc1nnc2c3cc(C)ccc3n(Cc3ccccc3)c2n1	103.3	nt	nt	i	1.02	10.2*	4.3
Cc1ccc(C(=O)NC(NCc2ccccc2)C(Cl)(Cl)Cl)cc1 (centres undefined)	97.5	24.1	132.4	i	1.05	-1.3	-2.5
Cc1ccc(NC(=O)N/C=C/c2ccco2)cc1	122.6	6.7	123.3	i	1.01	-3.0	4.5
Cc1ccc(C2CC(c3ccccc3)=NN2C(=O)CSc2nnc(-c3ccc(Cl)cc3)o2)o1 (centres undefined)	102.9	-26.7	67.2	i	0.9	-1.9	-2.3
N#C/C(C(=S)Nc1ccccc1)=C1/NN=C(N2CCOCC2)N1c1ccccc1	103.6	nt	nt	i	0.86	nt	-9.5
Cc1cc(C)c(C(N)=O)c(Nc2cccc3ccccc23)n1	103.3	-55.2	135.1	i	1.08	-3.7	-11.4
Cn1ccnc1SCC(=O)N1CCN(S(=O)(=O)c2ccccc2)CC1	104.0	nt	nt	i	1.03	nt	8.0
Clc1ccc(-c2nnc(-c3cccc4ccccc34)o2)cc1Cl	103.3	nt	nt	i	0.96	nt	nt
Cc1csc(NC(=O)c2ccc(C)c(S(=O)(=O)N3CCCCC3)c2)n1	98.1	nt	nt	i	1.09	-0.1	-1.1
CCOC(=O)c1c(-c2ccc(OC)cc2)csc1NC(=O)CSc1ncnc2sccc12	102.6	nt	nt	i	1.09	0.2	1.6
CC(C)(C)c1ccc(Oc2ccc(NC(=O)c3ccco3)cn2)cc1	94.3	nt	nt	i	0.95	nt	nt
O=C(NC(Cc1ccccc1)C(=O)O)/C(=C\c1ccco1)NC(=O)c1ccccc1 (centres undefined)	101.1	-22.2	142.1	i	1.16	-1.0	2.4
O=C(NC(=S)Nc1ccccc1N1CCOCC1)c1ccc(-c2ccccc2F)o1	104.8	nt	nt	i	0.94	nt	nt
CSCC[C@H](NC(=O)OC(C)(C)C)C(=O)N1CCC(C(=O)N[C@@H](C)C(=O)O)CC1	87.7	-3.5	73.0	i	0.91	-3.5	6.2
O/N=C/c1ccc(OCc2ccccc2)c(Br)c1	3.0*	-5.1	72.8	i	1.08	0.1	-4.0
CC(=O)c1ccc(OC(=O)C2CC(=O)N(c3cccc(C)c3)C2)cc1 (centres undefined)	103.1	-8.6	60.7	i	1.01	-2.9	0.3

Entries listed above marked active in RGS16-Gao.
SMILES | RGS16-Gao | HSV augment | HSV augment primary fold | GALR2 agonist | PKD1 kinase inh
O/N=C/c1ccc(OCc2ccccc2)c(Br)c1 | 3.0* | i | 1.08 | 0.1 | -4.0

(listing goes on)
SMILES	RGS16-Gao	Insulin prom inh	Insulin prom inh cell count	HSV augment	HSV augment primary fold	GALR2 agonist	PKD1 kinase inh
CCc1cccc2c(C(=O)CN3C(=O)NC(C)(c4cccc5ccccc45)C3=O)c[nH]c12 (centres undefined)	91.9	nt	nt	i	0.8	nt	5.6
COc1ccccc1OCc1nc(-c2ccc([N+](=O)[O-])cc2)no1	106.5	-11.5	149.6	i	1.11	-1.0	-9.6
Cc1cc2c(c(=O)n1Cc1cccnc1)C(c1ccccc1)C(C#N)=C(N)O2 (centres undefined)	109.5	nt	nt	i	0.96	-1.9	-9.3
CCOC(=O)c1ccc(NC(=O)N2CCN(c3ccccc3OC)CC2)cc1	102.7	nt	nt	i	0.87	nt	0.4
Cn1c(CN2CCCC2)c(C#N)c2ccccc21	105.6	nt	nt	i	0.88	nt	1.6
COc1ccc(C2C(C(=O)N3CCN(c4ccccc4)CC3)c3ccccc3C(=O)N2C)cc1OC (centres undefined)	98.5	34.2	71.7	i	1	-0.5	-5.7
